PINK1 expr mod: A Quantitative High throughput Screen to Identify Chemical Modulators of PINK1 Expression | PINK1 immunofluorescence, high-content cytometry, 24 h | actives 0.2% (n = 410,000) | Potency, µM (series often up to 76.6 µM), inactives show top-dose activation (PINK1 increase), usual class: activators | AID 624263, 2012; active = well fitted activation curve with a large enough effect; inconclusive = small, poorly fitted or top-dose-only effect; inactive = flat fitted curve, though single readings scatter; cell line not stated here;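 also: potency is read from the fitted curve at half-maximal effect; % of control where 0% means no effect; nearly all actives have a fitted effect of over 65% in size; a mitochondrial uncoupler was the plate control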
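Decision-based qHTS: stable cells, 24 h exposure to five compound concentrations, CCCP as control. Fixed cells stained for PINK1 plus nuclear, mitochondrial and cell markers, cytometer read.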
TRPML1 agonist: qHTS for Agonists of the Human Mucolipin Transient Receptor Potential 1 (TRPML1); actives 0.12% (n = 410,000); TRPML1-expressing cells, Ca2+ dye fluorescence, FDSS; host cell line not named in the record; reference of the full effect not given here; AID 624414, 2012; activation, % (test concentration not listed); in the data active = activation above about 50%; inconclusive = about 30% to 50%; inactive = below about 30%; also: 0% is about no effect; the text of the record puts the active cut at 80%
Target sequence (Q9GZU1 whole entry, looked up): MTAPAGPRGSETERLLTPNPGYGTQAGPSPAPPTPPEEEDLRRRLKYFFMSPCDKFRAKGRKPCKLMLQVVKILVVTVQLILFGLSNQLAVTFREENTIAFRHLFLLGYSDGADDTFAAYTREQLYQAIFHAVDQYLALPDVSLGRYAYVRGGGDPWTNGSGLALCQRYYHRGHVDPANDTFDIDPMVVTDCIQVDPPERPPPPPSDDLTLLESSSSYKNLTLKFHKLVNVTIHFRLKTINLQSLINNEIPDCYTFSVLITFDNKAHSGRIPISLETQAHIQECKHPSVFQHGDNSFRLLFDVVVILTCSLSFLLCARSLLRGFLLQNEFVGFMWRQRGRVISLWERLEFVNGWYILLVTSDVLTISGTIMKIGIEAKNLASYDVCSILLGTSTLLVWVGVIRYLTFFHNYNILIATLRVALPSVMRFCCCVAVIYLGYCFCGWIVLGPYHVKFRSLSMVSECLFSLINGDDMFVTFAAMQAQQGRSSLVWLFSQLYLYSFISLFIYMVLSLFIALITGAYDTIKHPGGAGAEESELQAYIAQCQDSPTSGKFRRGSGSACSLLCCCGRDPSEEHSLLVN
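Cells: TRPML1-DL, 1X Tet inducer, ~16 h at 37 degrees C/5% CO2. Dye: ABD Ca8 no-wash + quencher, 45-90 min RT. Read: 10 s baseline, compound add, 110 s agonist phase; 54-4 EC80 (4uM final), 110 s antagonist phase.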
Starred values were filed as active, the others as inactive; ? = inconclusive. This is a subset; count on the stated rates, not on these rows.

SMILES	PINK1 expr mod	TRPML1 agonist
COc1ccc(NC(=O)Cn2c(=O)n(CC(=O)NCCc3ccccc3)c(=O)c3ccccc32)cc1	0.8%	0.6
COc1ccc(-c2nc3scc(CCNS(=O)(=O)c4ccc5c(c4)OCCO5)n3n2)cc1	0.9%	4.7
CC(C)(C)c1ccc(C(=O)NC2(C(F)(F)F)C(=O)Nc3c2c(=O)[nH]c(=O)n3-c2ccccc2)cc1 (stereo not drawn)	1.1%	-0.4
O=C(Nc1cccc(C(=O)N2CCN(c3ccccc3)CC2)c1)c1nsc2ccccc12	-0.2%	1.8
O=C(Nc1ccc(F)cc1)c1oc2ccccc2c1NC(=O)C1CCCCC1	2.1%	1.0
CC(=O)Nc1c(C)nn(-c2ccccc2)c1N1CCC(C(=O)Nc2cc(F)ccc2F)CC1	0.4%	-0.1
O=C1c2[nH]nc(-c3ccccc3)c2C(c2ccccc2)N1c1cccc(C(F)(F)F)c1 (stereo not drawn)	-1.9%	1.1
CCOc1ccc(Nc2nc(C)c(NC(=O)c3cccc(OC)c3)c(Nc3ccc(OCC)cc3)n2)cc1	1.0%	-0.9
CCOC(=O)c1ccc2c(c1)[C@@H]1C=CC[C@@H]1[C@H](c1cccc(OC)c1OC)N2	2.5%	0.2
Cc1ccc(-n2ncc(C(=O)NCCCN3CCN(C)CC3)c2C2CCN(C(=O)OC(C)(C)C)CC2)c(C)c1	-0.8%	3.5
Cc1cc(OCC(=O)Nc2ncn[nH]2)c(C)c(C)c1Br	0.3%	1.8
COc1ccccc1CCNC(=O)CCc1c(C)c2cc3c(C)c(C)oc3cc2oc1=O	-0.1%	-0.7
COc1cc(NC(=O)CSc2ncc(S(=O)(=O)c3ccc(Br)cc3)c(=O)[nH]2)cc(OC)c1	-0.3%	1.1
CCc1sc(Nc2cccc(Cl)c2C)nc1-c1cc2cccc(OC)c2oc1=O	-0.1%	-0.4
Cc1ccc2nc(-c3ccc(O)cc3)c(Nc3ccc4c(c3)OCO4)n2c1	4.4%	2.4
Cc1nn(C(C)C(=O)Nc2ccc(C(C)C)cc2)c(=O)c2c1sc1ccccc12 (stereo not drawn)	0.1%	-0.4
CCCn1c(SCc2nc(-c3ccccc3OCC)no2)nnc1-c1ccc(Cl)cc1	-0.4%	5.5
CCOc1ccccc1CNC(=O)C1=C(C)C(=O)OC12CCN(C(C)=O)CC2	-0.2%	1.2
COc1ccccc1NC(=O)Cn1c(=O)n(-c2cccc(C)c2)c(=O)c2c1c1cc(C)ccc1n2C	0.2%	-1.0
COC(=O)c1c(NC(=O)CS(=O)(=O)c2ccc(C)cc2)sc2c1CCCCC2	-0.2%	2.3
COc1ccccc1/C=C/c1onc(C)c1S(=O)(=O)N1CCC(C(=O)N2CCC(C)CC2)CC1	2.0%	2.7
Cn1c(=O)c2c(SCC(=O)Nc3ccccc3C(F)(F)F)nc(C3CCCC3)nc2n(C)c1=O	1.7%	-1.0
COC(=O)c1cnc(N2CCN(c3ccc(F)cc3)CC2)c2ccccc12	0.8%	-0.3
O=C(NCc1ccc(Cl)cc1)C1CCN(c2nn3cc(-c4ccc(F)cc4)nc3s2)CC1	0.0%	1.0
CCOC(=O)c1ccc(N2C(=O)c3n[nH]c(-c4ccco4)c3C2c2ccc(O)cc2)cc1 (stereo not drawn)	-1.1%	1.5

Fetched one by one from the entries so far, 6 records:
SMILES	PINK1 expr mod	TRPML1 agonist
O=C(Nc1ccc(F)cc1)c1oc2ccccc2c1NC(=O)C1CCCCC1	2.1%	1.0
O=C(Nc1cccc(C(=O)N2CCN(c3ccccc3)CC2)c1)c1nsc2ccccc12	-0.2%	1.8
CCc1sc(Nc2cccc(Cl)c2C)nc1-c1cc2cccc(OC)c2oc1=O	-0.1%	-0.4
CC(C)(C)c1ccc(C(=O)NC2(C(F)(F)F)C(=O)Nc3c2c(=O)[nH]c(=O)n3-c2ccccc2)cc1 (stereo not drawn)	1.1%	-0.4
COC(=O)c1cnc(N2CCN(c3ccc(F)cc3)CC2)c2ccccc12	0.8%	-0.3
O=C(NCc1ccc(Cl)cc1)C1CCN(c2nn3cc(-c4ccc(F)cc4)nc3s2)CC1	0.0%	1.0

(cont.)
SMILES	PINK1 expr mod	TRPML1 agonist
CCc1ccc(C(=O)c2cn(CC(=O)Nc3cccc(OC)c3)c3cc4c(cc3c2=O)OCO4)cc1	6.0%	0.9
COc1ccccc1CNC(=O)CC(c1ccc(OC)c(OC)c1)N1Cc2ccccc2C1=O (stereo not drawn)	-2.1%	0.2
Cc1ccc(-n2ncc(C(=O)N3CCN(c4ccccn4)CC3)c2C2CCN(C(=O)OC(C)(C)C)CC2)cc1	-0.4%	0.2
Cc1cc(C)c(NC(=O)CSc2ccnc(=O)[nH]2)c(C)c1	0.0%	-0.4
O=C(NCc1ccccc1Cl)c1ccc(NC(=O)N2CCSc3ncccc32)cc1	-0.5%	-0.2
COc1ccc(OC)c(CNC(=O)c2ccc(N3Cc4ccccc4Oc4ncccc43)s2)c1	1.7%	-0.9
Cc1ccc(NC(=O)Cn2c(=O)n(CCCCC(=O)NCCc3ccc(Cl)cc3)c(=O)c3ccccc32)cc1	0.7%	-1.0
CCc1ccc(NC(=O)Cn2nnc(C(=O)Nc3cc(C)ccc3OC)c2N)cc1	?	0.3
O=C(COc1ccc(S(=O)(=O)NC2CCCCC2)cc1)Nc1ccc(C(F)(F)F)cc1	3.5%	-0.2
Cc1cccc(C)c1NC(=O)C(=O)NCC(c1ccc2c(c1)OCO2)N1CCOCC1 (stereo not drawn)	-0.9%	0.6
Cc1cc(F)ccc1NC(=O)CN1C(=O)CCc2cc(S(=O)(=O)N3CCOCC3)ccc21	0.8%	-1.2
COc1ccc(OC)c(NC(=O)CCn2cccn2)c1	0.1%	-0.2
Brc1cccc[n+]1CCCCCC[n+]1ccccc1Br	1.2%	0.0
O=C(CSc1n[nH]c(-c2ccccc2)n1)N1CCN(c2ccccc2F)CC1	0.2%	1.8
COc1ccc(C2NC(=O)N(C)C3=C2C(=O)N(c2cccc(C(=O)O)c2)C3)cc1 (stereo not drawn)	0.6%	1.0
CCc1ccc(-n2nc(C)c3c(C(=O)Nc4cc(C)c(Cl)cc4OC)cc(C)nc32)cc1	0.4%	-0.5
Cc1sc2ncn(CC(=O)N(C)c3ccc(Br)cc3)c(=O)c2c1S(=O)(=O)N1CCC(C)CC1	2.0%	-0.3
COc1ccc(NC(=O)c2ccccc2OCC(=O)Nc2ccc(Br)cc2)cc1	0.1%	-0.1
COc1ccc(-c2nc(SCC(=O)N3CCN(c4ccc(F)cc4)CC3)n[nH]2)cc1	-0.1%	2.5
CCOc1cc(CNCCSc2nnnn2C)cc(Cl)c1OCc1ccc(Cl)cc1	7.4%	0.6
Cn1c(=O)n(C)c2cc(N3CCCC3)c(NC(=O)Nc3ccccc3)cc21	0.9%	0.0
CCc1ccccc1NC(=O)CCNS(=O)(=O)c1ccc2c(c1)CCCC(=O)N2	-1.1%	1.4
Cc1ccc(N2CCN(S(=O)(=O)c3c(C)[nH]c(=O)[nH]c3=O)CC2C)cc1 (stereo not drawn)	-0.8%	-0.5
COc1ccc(NC(=O)C2=C(C)Nc3ncnn3C2c2cccn2C)cc1 (stereo not drawn)	?	1.8
CCC(C(=O)N(C)Cc1ccccc1)n1nc(C)c2sc3ccccc3c2c1=O (stereo not drawn)	1.0%	-0.5
SMILES	PINK1 expr mod	TRPML1 agonist
CCCCn1c(C2CC(=O)N(c3ccc(OCC)cc3)C2)nc2ccccc21 (stereo not drawn)	-0.7%	1.1
COc1cc2c(c(OC)c1)C(c1cccc(F)c1F)CC(=O)N2 (stereo not drawn)	1.3%	57*
Clc1cccc(N2CCN(c3nc4ccccc4n4cnnc34)CC2)c1	-0.1%	-0.7
CCOC(=O)c1c(S(=O)(=O)NCC(=O)Nc2ccc(C)c(N(C)C)c2)c(C)n(C)c1C	0.1%	1.6
Cc1ccn2c(Nc3ccc4c(c3)OCCO4)c(-c3ccc(C)o3)nc2c1	2.5%	1.4
CCOc1ccc(NC(=O)CC2C(=O)N(c3cccc(C)c3)C(=O)N2Cc2ccco2)cc1 (stereo not drawn)	0.7%	0.2
COc1ccc(OC)c(NC(=O)COCc2cc(-c3ccco3)on2)c1	-0.2%	2.3
CC(=O)c1ccc(NC(=O)CSc2nnc(-c3ccncc3)n2-c2ccccc2)cc1	3.2%	-0.7
Cc1ccc(C(=O)c2oc3ccccc3c2NC(=O)COc2ccccc2Cl)cc1	0.9%	1.8
CC(C(=O)Nc1cc(C(F)(F)F)ccc1Cl)n1nnc2sc3c(c2c1=O)CCCC3 (stereo not drawn)	6.9%	1.4
CCc1ccc2c(c1)c(=O)c(S(=O)(=O)c1ccccc1)cn2CC(=O)Nc1ccc(OC)cc1	0.4%	0.8
CCCn1c2ccccc2c2cnn(CC(=O)NCC3CCN(Cc4ccccc4C)CC3)c(=O)c21	2.8%	1.6
Cc1ccc(-c2nnc(Nc3ccc(Br)cc3)c3ccccc23)cc1S(=O)(=O)NCc1nc2ccccc2[nH]1	0.5%	-0.4
COc1ccccc1-c1noc(-c2ccc(NC3CCCC3)c([N+](=O)[O-])c2)n1	-0.9%	0.3
Clc1ccc(-c2nnn3c2nc(NCc2ccc4c(c2)OCO4)c2ccccc23)cc1	0.8%	-0.7
COc1ccc(Cl)cc1NC(=O)CSc1nc(=O)[nH]c2c1CCCC2	-0.6%	-0.1
COc1cc(C(CC(=O)NCCC(C)C)N2Cc3ccccc3C2=O)cc(OC)c1OC (stereo not drawn)	?	2.2
O=C(COc1ccccc1C(=O)Nc1ccccc1)NC1CCCCC1	1.1%	3.5
COc1cccc(-c2nnc(SCC(=O)N3CCC(C)CC3)o2)c1	-1.2%	-0.2
Cc1noc(C)c1S(=O)(=O)NCCc1csc2nc(-c3ccc(Cl)cc3)nn12	-0.9%	0.4
CCOC(=O)C1CCN(C(=O)CSc2n[nH]c(-c3ccc(F)cc3)n2)CC1	1.3%	-0.8
Cc1ccc(-c2onc(C)c2C)cc1S(=O)(=O)NC1CCC(C)CC1 (stereo not drawn)	0.4%	4.0
COc1ccc2nc3oc(C(=O)Nc4cccc(C(F)(F)F)c4)cc3cc2c1	0.8%	1.0
Cc1ncc(COC(=O)C(C)C)c2cc(C(=O)Nc3ccccc3C(F)(F)F)c(=O)oc12	3.7%	-0.3
CCc1nn2c(-c3ccccc3OC)ccnc2c1-c1ccccc1	3.6%	1.7

Ordered by length of the SMILES (rising): some entries from above.
SMILES	PINK1 expr mod	TRPML1 agonist
COc1cc2c(c(OC)c1)C(c1cccc(F)c1F)CC(=O)N2 (stereo not drawn)	1.3%	57*
Cc1ccc(-c2onc(C)c2C)cc1S(=O)(=O)NC1CCC(C)CC1 (stereo not drawn)	0.4%	4.0
COc1cc(C(CC(=O)NCCC(C)C)N2Cc3ccccc3C2=O)cc(OC)c1OC (stereo not drawn)	?	2.2
Clc1ccc(-c2nnn3c2nc(NCc2ccc4c(c2)OCO4)c2ccccc23)cc1	0.8%	-0.7
CCOc1ccc(NC(=O)CC2C(=O)N(c3cccc(C)c3)C(=O)N2Cc2ccco2)cc1 (stereo not drawn)	0.7%	0.2

The list goes on.
SMILES	PINK1 expr mod	TRPML1 agonist
CCCC(=O)Nc1nnc(SCc2cc(=O)n3cccc(C)c3n2)s1	8.7%	-0.1
CCCCN(C)CC(O)Cn1cc(/C=C/C(=O)c2ccc(OCC)cc2)c2ccccc21 (stereo not drawn)	-2.2%	4.6
O=C(NCc1ccccc1Cl)c1cnc(N2CCCCC2)c2ccccc12	0.1%	-0.4
Cc1ccc(C)c(NC(=O)N2CCc3cc(S(=O)(=O)N4CCC(C)CC4)ccc32)c1	0.7%	0.2
Cc1ccc(C)c(CNC(=O)CN2C(=O)CSc3ccc(S(=O)(=O)N(C)C)cc32)c1	0.2%	-0.9
CCN(c1ccccc1)S(=O)(=O)c1ccc(NC(=O)c2cc(=O)c3c(C)cc(C)cc3o2)cc1	5.2%	4.0
Cc1ccc(OC(C)C(=O)NCC2(N3CCOCC3)CCCCC2)cc1C (stereo not drawn)	-0.3%	0.5
CCOC(=O)c1cnc2cc(C(F)(F)F)ccc2c1Nc1ccc(F)cc1F	1.5%	0.6
Cc1cccc(NC(=O)CSc2nc(-c3cccs3)nc3cc(=O)[nH]n23)c1	2.5%	-0.2
CCN(CCCNC(=O)c1cc2c(=O)n(CC)c3ccccc3c2s1)Cc1ccccc1	-0.2%	1.3
CCCn1c2ccccc2c2cnn(CC(=O)Nc3cccc(C(=O)OCC)c3)c(=O)c21	13%	2.2
O=C(Nc1ccc(-c2nc3cc(NC(=O)c4ccccc4F)ccc3o2)cc1)c1ccccc1F	-0.5%	2.1
CCOC(=O)c1cccc(-n2nnc3c(sc4nc(C)c(Br)c(C)c43)c2=O)c1	0.3%	-0.5
Cc1ccc(N2C(=O)N(CC(=O)C(C)(C)C)c3ccccc3S2(=O)=O)cc1C	-0.6%	1.4
CC(NC(=O)C1CCN(C(=O)c2ccc(-n3ccc4ccccc43)s2)CC1)c1ccccc1 (stereo not drawn)	0.7%	-0.6
Cc1ccc(-c2nc(C(=O)NCc3ccc(Cl)cc3)c3n2CCCCC3)cc1	2.6%	2.7
Cc1nnc(N2CCCC(C(=O)Nc3cccc(C(F)(F)F)c3)C2)c2nn(-c3ccccc3)c(C)c12 (stereo not drawn)	0.1%	1.4
CC(C)c1cnc2c(c1SCc1cccc(F)c1)c(=O)n(C)c(=O)n2C	0.8%	2.4
CCOc1ccc(C(=O)c2c(N)c(-c3nc(-c4ccc(OCC)cc4)cs3)c3ccccn23)cc1	4.6%	0.5
